Vaccinia Venus: inhibitors of vaccinia virus (Venus reporter); Vaccinia virus Venus reporter expression, fluorescence; Potency, µM (highest dose often 36.5 µM), inactives show at the top dose activity change, negative = inhibition, hits mostly inhibitors; hit rate 0.46% among 330,000; AID 720580; active means well fitted inhibition curve with a large enough effect; inconclusive means small, poorly fitted or top-dose-only effect; inactive means no such curve, though single readings can be large or run the other way; tested in A549 cells; further: nearly all actives have a fitted effect of over 30% in size; inactives centre near -10
VACV mCherry inh: vaccinia inhibition (mCherry reporter). Vaccinia virus mCherry reporter infection, fluorescence; about a quarter of the inactives have no number. hit rate 0.63% among 310,000. AID 720579. Potency, µM (titrated, usually from 36.5 µM), inactives show at the top dose activity change, negative = inhibition, most hits filed as inhibitors; active = well fitted inhibition curve with a large enough effect; inconclusive = small, poorly fitted or top-dose-only effect; inactive = no such curve, though single readings can be large or run the other way; tested in A549 cells; further: nearly all actives have a fitted effect of over 35% in size; inactives centre near -10
Starred values were filed as active, the others as inactive; i = inactive; ? = inconclusive; . = no result given; [ ] = remark or other dose. On the % scale 0 is the no-effect control and ±100 the full control effect; potency means the concentration at half of the fitted maximal effect.

SMILES	Vaccinia Venus	VACV mCherry inh
Cc1nnc(NC(=O)CCC2CCCCC2)s1	-3.0%	i
COc1ccc(-c2ccc(C(=O)Nc3ccc(C(C)C)cc3)c3occc23)c(C)c1	4.0%	18.6%
Cc1c(C=O)c2ccccn2c1C(=O)c1ccccc1Cl	-17.7%	-12.4%
COc1ccc(-n2nc3c(c2NC(=O)c2c(-c4ccccc4Cl)noc2C)CS(=O)(=O)C3)cc1	-6.2%	2.0%
O=C(CSc1ncc(CO)n1Cc1ccc(Cl)cc1)NCc1ccc(F)cc1	-14.6%	-17.6%
Cc1nc(-c2ccc(-c3ccon3)s2)no1	-9.9%	i
O=C(C/C=N\OCc1ccc([N+](=O)[O-])cc1)Nc1ccc(Cl)cc1	-6.3%	i
O=[N+]([O-])c1cccc(-c2ccc(SCc3cccnc3)nn2)c1	-12.4%	-3.8%
COc1ccc(/C(N)=N/OC(=O)c2ccc(C)c([N+](=O)[O-])c2)cc1OC	7.8%	.
COc1ccccc1C1CN(CCNC(=O)c2ccc3c(c2)OCCO3)Cc2ccccc2O1 (stereo not given)	-3.4%	-13.8%
COC(=O)c1ccc(NCc2c(O)ccc(O)c2Br)cc1Cl	3.3%	-17.6%
CCSc1nc(C)c(C(C)=O)cc1C#N	-16.5%	-7.5%[1.46 µM]
CC(=O)N1CCN(C(=O)c2cc(S(=O)(=O)Nc3ccc(S(C)(=O)=O)cc3)ccc2Cl)CC1	-4.7%	-13.8%
COc1cccc(NC(=S)N2CCc3cc(OC)c(OC)cc3C2COc2ccc3c(C)cc(=O)oc3c2)c1 (stereo not given)	-7.0%	-2.9%
CCOC(=O)c1ccc(NC(=O)Nc2ccc(S(N)(=O)=O)cc2)cc1	-4.3%	-10.6%
Cc1ccc(Cl)cc1NC(=O)Cn1c(=O)n(C(C)C)c(=O)c2oc3ccccc3c21	-16.5%	-19.7%
O=S(=O)(Cc1cccc(F)c1)c1c[nH]c2ccccc12	-14.9%	-20.1%
CCOc1ccc(C2CC(=O)NC(SC)=C2C#N)cc1 (stereo not given)	-27.7%	-20.7%
Cc1ccc(-c2cc(C(F)(F)F)n3nc(-c4cccc(Br)c4)cc3n2)cc1	-4.7%	-8.6%
COc1ccc(-c2c(=O)n(OCc3ccccn3)c3ccccc3[n+]2[O-])cc1OC	-9.7%	-4.1%
CN1c2ccccc2C2(C)CCCC3=Cc4cc([N+](=O)[O-])cc([N+](=O)[O-])c4OC312 (stereo not given)	-19.1%	-3.2%
CC(CC(=O)c1ccc(F)cc1)N1CCN(c2ccccc2)CC1 (stereo not given)	-5.2%	i
COc1ccc(-n2nnnc2SCC(=O)NNC(=O)c2ccc([N+](=O)[O-])cc2)cc1	-19.5%	i
CC(C)(C)NC(=O)Cn1c(Cl)nc2ccccc21	-9.4%	i
COc1ccc(S(=O)(=O)N2CCCC2CNC(=O)C(=O)NC2CC2)cc1 (stereo not given)	-6.9%	-8.2%

Going on with the list:
SMILES	Vaccinia Venus	VACV mCherry inh
CC(=O)Nc1cc2c(ccc3ccccc32)oc1=O	-2.7%	12.6%
O=C(NCc1ccccc1F)c1sc2ncccc2c1-n1cccc1	-10.8%	-12.0%
Cc1ccc2oc(=O)c3cnn(CC(=O)NCCN4CCOCC4)c3c2c1	-6.4%	i
CCC1CCCCN1Cc1cn2c(-c3ccc(Br)cc3)nnc2s1 (stereo not given)	3.2%	10.9%
CC(C)c1ccc(/C=N/NC(=O)CC(=O)NC2CCCCC2)cc1	-19.6%	i
O=[N+]([O-])c1cccc(Oc2cnccn2)c1	-2.1%	-15.2%
COC(=O)c1ccc(NC(=O)c2nc(S(=O)(=O)Cc3cccc(C)c3)ncc2Cl)cc1	?	?
Cc1cccc(NC(=O)NC(C)C(c2ccccc2)N2CCN(C)CC2)c1 (stereo not given)	2.1%	-15.9%
CCn1c(N2CCN(C(=S)NC)CC2)nc2ccccc21	2.8%	-13.2%
CCN(CC(=O)Nc1ccccc1C(F)(F)F)C(=O)CCOc1ccc(C)cc1	-13.0%	-3.7%
COC(=O)C1CCN(CC(=O)Nc2cc(C)c3c(=O)oc4ccccc4c3n2)CC1	3.3%	12.3%
Cc1oc2ncn(C)c(=O)c2c1C(=O)N1CCN(c2ccccc2F)CC1	-7.8%	-6.7%
COc1ccc(C2c3ccc(O)cc3Oc3ncn(CC(C)C)c(=N)c32)cc1 (stereo not given)	-10.8%	-16.4%
CN(C)c1ccc(P(=O)(OCc2ccccc2)C(O)c2ccc(Cl)cc2)cc1 (stereo not given)	-0.5%	-11.0%
CCCCNc1c(CC(C)C)nc2nc(C)cc(C)n12	0.4%	-10.3%
Nc1ccc2c(=O)[nH][nH]c(=O)c2c1	-10.8%	-17.1%
Nc1ccc(N2CCOCC2)c(Cl)c1	-6.4%	-8.6%
Cc1onc(-c2c(Cl)cccc2Cl)c1C(=O)NNc1ccccc1	-15.9%	i
Cc1ccc(O)c(Cn2nnc3ccccc32)c1	-18.7%	-19.3%
O=C(COc1ccccc1)Nc1nnc(-c2ccco2)o1	-15.1%	-13.7%
O=C(N/N=C/C(Cl)=C/c1ccccc1)c1ccccn1	-3.7%	-15.8%
CC1CCCN(CCCNC(=O)c2coc3nc4ccccc4nc23)C1 (stereo not given)	-1.3%	.
Cn1c(=O)c2c(nc(NCCc3ccccc3)n2CC(=O)NCCc2ccccc2)n(C)c1=O	-21.4%	.
CCOC(=O)c1c(C)n(Cc2ccccc2)c2ccc(OCC(O)Cn3nc(C)cc3C)cc12 (stereo not given)	?	-28.0%
C/C=C(\C)C(=O)N[C@@H](C)CN1C2=NC[C@H](C(C)C)N2C[C@H]1Cc1ccc(OC)cc1	-19.5%	i

Additional compounds.
SMILES	Vaccinia Venus	VACV mCherry inh
Cc1oc(-c2ccccc2)nc1CSc1nc2c(c(=O)[nH]1)CCC2	-1.3%	4.9%
Cc1cccc(NC(=O)c2ccc(S(=O)(=O)N(C)CC3CCCO3)cc2)c1C (stereo not given)	-8.7%	i
COc1ccc2[nH]cc(CCNS(=O)(=O)c3ccccc3)c2c1	-6.1%	-6.0%
NC(=O)c1ccccc1NC(=S)NC(=O)CCc1ccccc1	?	-8.4%
O=C(Nc1ccc(OC(F)(F)F)cc1)C1CC(=O)N(Cc2ccco2)C1 (stereo not given)	-17.2%	-3.0%
CC[n+]1ccc(C(=O)NCc2ccccc2)cc1	-26.6%	-20.8%
CCCNC(=O)C1CNc2ccccc2O1 (stereo not given)	-15.4%	i[1.46 µM]
Cc1ccc(-c2nnc(SCC(=O)NCC3CCCO3)n2C)cc1 (stereo not given)	-8.1%	-6.0%
NCCCCC(NC(CCc1ccccc1)C(=O)O)C(=O)N1CCCC1C(=O)O (stereo not given)	?	-5.2%
COc1ccc(N2CCN(C(=O)CNS(=O)(=O)c3ccc(C)cc3)CC2)cc1	-8.0%	-7.1%
Cn1c(SCC(=O)N2CCOCC2)nc(O)cc1=O	-1.9%	i
CC1(C)OC(=O)C(=NNc2ccccc2)C(=O)O1	-13.9%	-12.5%
CCOCC(=O)Nc1cc(C(=O)OC)cc(C(=O)OC)c1	-7.6%	-22.2%
FC(F)(F)c1cccc(NC(=S)N(CCCN2CCCC2)Cc2cccn2Cc2ccc(Cl)cc2)c1	?	?
COc1ccc(N=C2SCC(=O)N2c2ccc(OC)cc2)cc1	-15.2%	-11.8%
Cc1ccc(-c2csc3ncnc(-n4nnc5ccccc54)c23)cc1C	-11.9%	-6.8%
C[C@@H]1CN([C@@H](C)CO)S(=O)(=O)c2ccc(Br)cc2O[C@H]1CN(C)Cc1ccccn1	-24.1%	?
C=CCOc1ccccc1CN1CCC(n2nccc2NC(=O)c2ccccc2)CC1	-3.4%[7.34 µM]	-13.0%[7.34 µM]
CCOc1ccc(NC(=O)Nc2ccc3nccnc3c2)cc1	-11.6%	-1.7%
COC(=O)c1ccc(SCC(=O)NC2CCCC2)c([N+](=O)[O-])c1	-5.9%	-8.3%
Cc1ccc(Cl)cc1N1CCN(C(=O)COCc2cc(-c3ccc4c(c3)OCO4)on2)CC1	-1.1%	-12.2%
OC12ONC(c3ccccn3)C1N1CCC2CC1 (stereo not given)	-6.1%	-10.9%
CN(C)c1ccc(/C=C(\NC(=O)c2ccccc2)C(=O)NCc2cccnc2)cc1	-4.5%	-2.7%
O=C(CNC(=O)c1ccc([N+](=O)[O-])cc1)N/N=C\c1ccc(OC(=O)c2ccccc2)cc1	-2.4%	-12.3%
O=C(C1=NOC2(C1)C(=O)N(Cc1ccccc1)c1ccccc12)N1CCOCC1 (stereo not given)	6.2%	31.2%[activator]

Some of the entries so far, with two lines to a compound.
Order of values – Vaccinia Venus, VACV mCherry inh
Cc1oc(-c2ccccc2)nc1CSc1nc2c(c(=O)[nH]1)CCC2
 : -1.3%, 4.9%
O=C(CNC(=O)c1ccc([N+](=O)[O-])cc1)N/N=C\c1ccc(OC(=O)c2ccccc2)cc1
 : -2.4%, -12.3%
CCOc1ccc(NC(=O)Nc2ccc3nccnc3c2)cc1
 : -11.6%, -1.7%
CN(C)c1ccc(/C=C(\NC(=O)c2ccccc2)C(=O)NCc2cccnc2)cc1
 : -4.5%, -2.7%
Cn1c(SCC(=O)N2CCOCC2)nc(O)cc1=O
 : -1.9%, i

Remaining list, next part
SMILES	Vaccinia Venus	VACV mCherry inh
CCOC(=O)c1c(C)[nH]c(C(=O)COC(=O)C2CC2)c1C	-7.6%	0.4%
CCCSC1=N/C(=C\C=C\c2ccco2)C(=O)S1	0.3%	-11.5%
COc1ccc(CC(=O)N(Cc2ccccc2)c2ccccc2)cc1S(=O)(=O)N1CCOCC1	-22.4%	-22.1%
COc1ccc(CC(NC(C)=O)C(=O)NC2CCN(c3c4c(nc5ncnn35)CCC4)CC2)cc1OC (stereo not given)	-15.8%	-14.8%
COc1cccc(-n2c(Cc3cc(=O)[nH]c(=O)[nH]3)nnc2SCc2cccnc2)c1	-0.2%	i
Cc1ccc(S(=O)(=O)c2nc(-c3cccc(Br)c3)oc2N2CCCCCC2)cc1	-16.7%	-16.1%
Nc1nc(-c2ccco2)nn1C(=O)c1ccc(F)cc1	-5.9%	i
COC(=O)[C@@H]1C[C@@]2(O)[C@H](O)[C@H](O)[C@H](O)C[C@H]2N1Cc1cccc2ccccc12	-5.7%	i
Cc1nnc(SCC(=O)NC(C)(C)C)n1C1CCCCC1	-3.6%	i
N#C/C(=C(/O)c1ccc([N+](=O)[O-])cc1)c1nc2ccccc2[nH]1	5.3%	i
Cc1c(Cl)cccc1-n1ncc(C(=O)NCCN2CCN(C)CC2)c1C1CCN(C(=O)OC(C)(C)C)CC1	-6.6%	6.1%
Cc1ccc(C)c(S(=O)(=O)NCC(=O)Nc2sc3c(c2C(N)=O)CCC(C)C3)c1 (stereo not given)	-15.8%	.
CCOC(=O)Cc1c(-c2cccc(Cl)c2)nc2c3ccccc3ccn12	9.8%	36.3%[activator]
COCCn1nnnc1C(C(C)C)N(Cc1cccnc1)Cc1cc2cc(OC)ccc2[nH]c1=O (stereo not given)	-11.8%	.
Cc1ccc(S(=O)(=O)NNC(=O)Nc2ccc([N+](=O)[O-])cc2)c(C)c1	-10.2%	-15.9%
COc1ccc(CCNC(=O)COc2ccc(N(C)S(=O)(=O)c3ccc(C)cc3)cc2)cc1OC	6.0%	i
COc1cc(OC)c(C(=O)OCN2C(=O)c3ccccc3C2=O)cc1OC	-9.8%	-19.5%
C=C(C)COC(=O)C1CC2OC2CC1C(=O)OCC(=C)C (stereo not given)	-4.9%	-16.4%
COCCCNS(=O)(=O)c1ccc(Cl)c(C(F)(F)F)c1	-16.9%	i
CCc1nc2ccc(C(=O)NCc3ccc4c(c3)OCO4)cn2c1N(CCC(C)C)CCN(C)C	-6.3%	18.6%
Cc1cc(=O)[nH]c2ccc(O)cc12	-15.8%	-13.6%
O=C(Cn1ncc2c(=O)oc3ccccc3c21)Nc1cc(F)ccc1F	-2.0%	-3.1%
Cc1cccc(COCCN2CCN(S(=O)(=O)c3ccccc3)CCC2=O)c1	-16.1%	-8.7%
S=C(Nc1ccc(Oc2ccccc2)cc1)NC1CCCC1	-12.1%	i
O=C(COc1ccc2ccc(=O)oc2c1)NC1CCCCC1	-13.1%	-10.4%

The final four compounds of the part above open the next one:
SMILES	Vaccinia Venus	VACV mCherry inh
O=C(Cn1ncc2c(=O)oc3ccccc3c21)Nc1cc(F)ccc1F	-2.0%	-3.1%
Cc1cccc(COCCN2CCN(S(=O)(=O)c3ccccc3)CCC2=O)c1	-16.1%	-8.7%
S=C(Nc1ccc(Oc2ccccc2)cc1)NC1CCCC1	-12.1%	i
O=C(COc1ccc2ccc(=O)oc2c1)NC1CCCCC1	-13.1%	-10.4%
O=C(Nc1ccc(NC(=O)c2ccco2)cc1)c1ccc2c(c1)OCO2	?	.
CN(C)S(=O)(=O)c1cccc(C(=O)NCc2ccco2)c1	0.6%	-14.8%
CCc1ccc(CN(C)CC(=O)Nc2ccccc2[N+](=O)[O-])cc1	-13.4%	i
Cc1nc(C)n(C(C)CNC(=O)c2cccc(Br)c2)n1 (stereo not given)	-2.3%	-20.3%
Cc1ccc(NC(=O)CSc2nc3ccccc3c(=O)n2CCCN2CCCCC2)cc1Cl	?	?
N#C/C(=C\c1cccc(O)c1)c1nc2ccccc2o1	-2.8%	-10.5%
CCC(=O)c1ccc(OCC(=O)OCC(=O)NC2CCCCCC2)cc1	-6.8%	i
Cc1cc(NS(=O)(=O)c2ccc(NC(=O)c3cc4c(=O)n5ccccc5nc4s3)cc2)nc(C)n1	-10.4%	-15.1%
O=C(CN1CCS(=O)(=O)CC1)NNC(=O)C1CCCCC1	-6.1%	i

Screening results as filed in PubChem BioAssay.
